Assay outcomes: PubChem BioAssay, several laboratories
UCH37 DUB inh: inhibitors of human deubiquitinating enzyme UCH37; inhibition, % (no concentration beside the values); AID 588478; 330,000 compounds, 0.33% hits; purified proteasome/UCH37, Ub-AMC cleavage fluorescence; Q9Y5K5;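 active = mean of two replicates above 20%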;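 also: 0% = compound-free wells with enzyme and 100% = wells lacking proteasome; stock transfer was 100 nL into about 20 µL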
Target sequence (Q9Y5K5 whole entry, looked up): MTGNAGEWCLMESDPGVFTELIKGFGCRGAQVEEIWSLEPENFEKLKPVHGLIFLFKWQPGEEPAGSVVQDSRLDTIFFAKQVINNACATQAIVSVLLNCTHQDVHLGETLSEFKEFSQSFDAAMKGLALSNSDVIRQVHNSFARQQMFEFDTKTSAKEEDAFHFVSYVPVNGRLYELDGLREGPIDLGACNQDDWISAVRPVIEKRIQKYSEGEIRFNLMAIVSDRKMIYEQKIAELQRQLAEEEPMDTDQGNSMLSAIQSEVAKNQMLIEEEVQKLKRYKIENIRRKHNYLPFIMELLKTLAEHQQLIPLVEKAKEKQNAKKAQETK
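Material: Human UCH37 enzyme supplied as purified proteasome complex | Schedule: 30 min compound-proteasome preincubation then 25 min substrate reaction, room temperature | Detection: AMC fluorescence from Ub-AMC cleavage, excitation 355 nm, emission 460 nm | Benchmarks: Wells without proteasome as full block, compound-free enzyme plus substrate as uninhibited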
B2AR ag: agonists of human beta-2 adrenergic receptor inducing internalization | AID 504454 | P07550 | response, % (no concentration beside the values) | 340,000 compounds, 0.43% hits | Am2.2-beta2AR cells, FAP receptor internalization, flow cytometry; reference of the scale not given here;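 active = response above a set limit, near 3 SD of response in nonfluorescent compounds, cut at about 42% in these data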;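 also: stock transfer was 100 nL into about 11 µL; a reference agonist was the positive control; negative values mostly stem from fluorescent compounds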
Target sequence (P07550 whole entry, looked up): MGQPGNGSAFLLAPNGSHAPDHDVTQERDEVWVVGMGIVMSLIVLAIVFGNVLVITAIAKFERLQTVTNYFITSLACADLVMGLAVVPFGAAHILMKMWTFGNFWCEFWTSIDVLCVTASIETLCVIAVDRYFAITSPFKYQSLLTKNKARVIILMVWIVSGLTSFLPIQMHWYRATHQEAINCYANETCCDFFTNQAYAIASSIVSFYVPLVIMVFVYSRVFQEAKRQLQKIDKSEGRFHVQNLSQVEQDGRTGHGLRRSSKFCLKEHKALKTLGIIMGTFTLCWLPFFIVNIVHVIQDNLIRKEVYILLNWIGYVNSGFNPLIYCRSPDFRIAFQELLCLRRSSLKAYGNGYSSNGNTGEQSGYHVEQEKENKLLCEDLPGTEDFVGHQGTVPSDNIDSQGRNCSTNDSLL
RanGTP-Imp inh: inhibitors of RanGTP-importin-beta interaction, primary screen, biochemical, FRET, CFP-Ran, YFP-importin-beta, homogeneous; cell-free CFP-Ran/YFP-importin-beta FRET ratio; inhibition, % (test concentration not listed); 300,000 compounds, 1.1% hits; AID 2216;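 active = most replicates above 15%; inconclusive = exactly half above 15%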;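 also: 0% = DMSO wells and 100% = Ran loaded with GDP instead of GTP; wells of about 40 µL received 100 nL stock; the first replicate is given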
LANA-H2A inh: blocks KSHV LANA binding to histone H2A/H2B | Q9QR71 | cell-free LANA-H2A/H2B peptide, fluorescence polarization | inhibition, % (concentration not given with the values) | 320,000 compounds, 0.6% hits; in the data active = inhibition mostly above about 10%, no sharp cut-off; inactive = mostly below about 6.7%;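 also: stock transfer was 7.5 nL into about 10 µL; 0% = median of vehicle wells and 100% = median of positive control wells; one replicate is shown; the record names a cut of 25% in any replicate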
Calb FLC: affects C. albicans growth with fluconazole. growth inhibition, % (concentration not given with the values). AID 1979. 300,000 compounds, 0.57% hits. C. albicans CaCi-2 (fluconazole-resistant clinical isolate) + fluconazole, Alamar Blue growth, 48 h;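 active = most replicates above 75%; inconclusive = exactly half above 75%; inactive = most below 75%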;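 also: all wells also contain fluconazole at 8 µg/ml as a sub-toxic cotreatment; 0% = median of DMSO wells and 100% = median of geldanamycin control wells; wells of about 8 µL received 7.5 nL stock; the first replicate is given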
T cruzi inh: blocks replication of Trypanosoma cruzi; 300,000 compounds, 1.4% hits; inhibition, % (concentration not given with the values); T. cruzi beta-gal in NIH3T3, luminescence, 90 h; AID 1885;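 active = mean inhibition across valid replicates above about 55%, limit read from the data; inconclusive = mean below that limit but half or more replicates reach it; inactive = mean below it, under half of replicates reach it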;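 also: signal also drops with host cell toxicity which is not excluded here; 0% = plate median of DMSO wells and 100% = zero luminescence signal; higher percent means less beta-gal luminescence so fewer parasites; stock transfer was 50 nL into about 50 µL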
Beta apoptosis: beta cell apoptosis inhibition; INS-1E cytokine-induced death, ATP luminescence, 48 h; percent of positive-control rescue, neutral wells zero; protection from apoptosis, % (concentration not given with the values); 300,000 compounds, 0.8% hits;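 active = all replicates at 75% or more, or half of them and the mean; inconclusive = half reach 75% but not the mean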;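 also: 0% = cytokine-treated negative control wells and 100% = positive control rescue; higher means more ATP so stronger rescue from cytokine killing; wells of about 40 µL received 100 nL stock; the first replicate is given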
Bfl-1 A1 inh: inhibitors of the anti-apoptotic protein A1, read as caspase activation | 330,000 compounds, 0.066% hits | MEF A1-2A-BIM cells, Caspase-Glo 3/7 luminescence, 3 h; percent of clofoctol response, vehicle zero | caspase activation, % (concentration not given with the values);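 active = over half of replicate activation scores above 10%, or exactly half above 10 with the replicate mean above 10; inconclusive = replicate mean below 10 yet half the replicates above 10; inactive = over half of replicates below 10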;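 also: wells of about 30 µL received 50 nL stock; many hits fall short of the cut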
The depositor's hits bear a star; ? = inconclusive; · = no result given.

SMILES | UCH37 DUB inh | B2AR ag | RanGTP-Imp inh | LANA-H2A inh | Calb FLC | T cruzi inh | Beta apoptosis | Bfl-1 A1 inh
CCc1nnc(NC(=O)c2ccc(S(=O)(=O)N(C)c3ccccc3)cc2)o1 | 2.0 | 32 | 4.9 | -1.3 | 39 | -24 | 9 | 0.3
COc1ccc(NC(=O)c2cc(C)nc3ccccc23)cc1S(=O)(=O)N1CCOCC1 | 3.2 | 6 | · | 2.7 | · | · | 1 | 1.0
COc1ccc(-c2csc3ncnc(N4CCN(c5ccccc5Cl)CC4)c23)cc1 | 0.4 | 6 | ? | 8.1 | -14 | 33 | 4 | 0.7
CC(C)(C)NC(=O)C(c1ccncc1)N(Cc1ccco1)C(=O)c1ccc(-c2ccccc2)[nH]1 (stereo not given) | · | 11 | 2.0 | -4.4 | 10 | 3 | -3 | -1.1
COC(=O)c1ccc2c(c1)N(C)S(=O)(=O)c1cnc(SCC(=O)C(C)(C)C)nc1-2 | 4.0 | -12 | ? | 1.4 | 1 | -17 | -13 | 0.4
Cc1cc(C)c([N+](=O)[O-])cc1NCC(=O)N1CCN(c2ccccc2)CC1 | 1.1 | -14 | 4.2 | -4.0 | 0 | -6 | 0 | 0.3
Cc1ccc(CNC(=O)C2CCN(S(=O)(=O)c3c(C)noc3/C=C/N(C)C)CC2)cc1 | 7.8 | -9 | 2.0 | -1.1 | -13 | -3 | -3 | 0.2
CCOc1cc(/C=N\NC(=O)Cn2nc([N+](=O)[O-])cc2C)ccc1OCc1cccc2ccccc12 | · | -2 | -5.5 | 5.6 | -2 | 45 | · | 2.1
O=C(CSc1nc2c(c(C(F)(F)F)n1)CCc1ccccc1-2)NCc1ccco1 | 0.9 | -23 | 2.5 | -23 | 5 | 19 | -6 | -0.8
COc1nc(-c2cccs2)cc(-c2ccc(C)cc2)c1C#N | -273 | -9 | 11 | -5.4 | 8 | -29 | -1 | 0.4
CCn1c(SCC(=O)NC2CCCC2)nnc1-c1ccoc1C | -0.3 | -5 | -1.5 | -2.5 | -6 | -12 | -3 | -0.2
COc1ccc(S(=O)(=O)N(CCCN2CCCC2=O)Cc2cc3cc(C)c(C)cc3[nH]c2=O)cc1 | · | 5 | -2.6 | · | 14 | 12 | · | ·
O=C(NCc1ccco1)c1nn(-c2ccccc2)c(=O)c2ccccc12 | 6.0 | 15 | 1.0 | -0.7 | 15 | 0 | · | -1.2
CC(=NNC(=O)c1cccc(S(=O)(=O)N2CCOCC2)c1)c1ccc(Cl)cc1 | 0.2 | -16 | · | 3.1 | · | · | 0 | -0.3
CC(C)c1ccc(C2(C)NC(=O)N(CC(=O)NC3CCCC(C)C3C)C2=O)cc1 (stereo not given) | 4.2 | 3 | · | 0.8 | · | · | 5 | -1.3
N#Cc1c2n(c3c(=O)n(Cc4ccccc4)cnc13)CCCC2 | 0.1 | -27 | 4.1 | 4.6 | 12 | 1 | -9 | 0.3
CC(=O)c1ccc(S(=O)(=O)N2CCNC(=O)C2)cc1 | 4.4 | -5 | · | 2.6 | · | · | -4 | 1.4
Cc1cc(C)n(-c2nc3ccccc3nc2N2CCN(C(=O)c3ccc(F)cc3)CC2)n1 | -2.6 | -4 | 6.4 | 1.5 | -5 | 10 | 2 | -0.2
Cc1nc(-c2ccc3c(c2)OCO3)cs1 | -1.8 | 6 | -2.6 | 2.7 | -15 | -9 | -3 | -2.2
O=c1c(Cl)c(N/N=C/c2ccc(Cl)cc2)cnn1-c1ccccc1 | · | -1 | -1.5 | 3.3 | -8 | 6 | 0 | -0.5
CCCc1ccc(OCC(=O)O)cc1 | 4.1 | 0 | 1.1 | -2.1 | -4 | 4 | -1 | 0.6
CC(C)(C)c1ccc(NC(=O)COC(=O)C2CCCC2)cc1 | · | 5 | · | -12 | · | · | -1 | 1.5
Cc1noc(C)c1COc1cccc(C(=O)Oc2ccc3c(c2)OCO3)c1 | 3.0 | 0 | 1.6 | -3.4 | 20 | 1 | 6 | 0.2
CC(C)(C)C(=O)N1CCN(c2ccc([N+](=O)[O-])cc2Cl)CC1 | 5.1 | -2 | -3.0 | 0.8 | 2 | -6 | 1 | 0.0
COC(=O)CSc1nccc(-c2cccs2)n1 | 0.7 | 7 | -2.2 | 0.0 | -16 | -1 | -13 | 0.8
CCC(C)c1ccccc1N=Cc1ccc2c(c1)OCO2 (stereo not given) | 1.6 | -1 | -3.7 | 3.6 | -2 | 2 | -1 | 0.3
CC(C)(C)c1ccc(-n2ncc3c2CCCC3NC(=O)CCn2cncn2)cc1 (stereo not given) | -2.1 | 14 | 4.9 | 3.9 | -6 | 1 | 0 | -0.9
O=C(Nc1ccc(S(=O)(=O)Nc2nccs2)cc1)c1cnc(Cl)c(Cl)c1 | 4.4 | -8 | -1.7 | -1.8 | 5 | -6 | -2 | 0.3
COc1ccc(N2C(=O)CC(NNC(=O)c3cccnc3)C2=O)cc1 (stereo not given) | 0.3 | -1 | 1.2 | 5.9 | 1 | -2 | -1 | 0.9
CC(C)Oc1ccc(CNC2CCOC(C)(C)C2)cc1 (stereo not given) | 1.2 | 1 | 3.8 | 0.2 | -3 | 7 | 2 | 0.4
COC(=O)C(Cc1ccccc1)NC(=O)CNC(=O)c1ccccc1OC (stereo not given) | 0.2 | 3 | -0.3 | -0.5 | 3 | 25 | 3 | 0.0
O=C(O)CSC1c2ccccc2C(=O)N1Cc1ccccc1 (stereo not given) | 0.3 | -1 | -12 | -2.1 | -13 | -4 | -4 | 0.0
O=c1c([N+](=O)[O-])c(N2CCOCC2)c2ccccc2n1-c1ccccc1 | 1.8 | -1 | 1.8 | -0.7 | ? | 6 | 0 | 0.7
CC12CCC(C(=O)NCC3CCCO3)(OC1=O)C2(C)C (stereo not given) | 0.4 | -3 | -0.7 | -1.6 | 2 | -2 | -8 | -0.2
CC(=O)Nc1cccc(C(=O)Nc2ccc(S(=O)(=O)NC3=NCCCCC3)cc2)c1 | 1.4 | 1 | 0.3 | 0.1 | -11 | 2 | -6 | 0.3
COc1ccc(NC(=O)c2cc3c(Cl)nc4ccccc4c3s2)cc1OC | -5.2 | 13 | 0.1 | 0.9 | -7 | 20 | 34 | -0.7
O=C(Nc1ccc(-c2nc3ccccc3[nH]2)cc1)c1ccco1 | -5.7 | -10 | -2.0 | -0.6 | -8 | 5 | 8 | -7.0
Cc1csc(NC(=O)c2nc3nc(C)cc(C)n3n2)n1 | 6.7 | 17 | 0.4 | 2.6 | 42 | -10 | -1 | -0.8
CCOc1ccc2ccccc2c1/C=N/n1cncn1 | · | -1 | 7.0 | 3.3 | 19 | -2 | 2 | 2.0
COc1cc(NS(=O)(=O)c2ccc(NC(=S)NC(=O)/C=C/c3ccc(F)cc3)cc2)ncn1 | · | 8 | -0.3 | 7.7 | -3 | -7 | -7 | 0.5
O=C(COc1ccc(Cl)cc1)NCCN1CCCC1 | 3.5 | -4 | -0.4 | 0.5 | 3 | 0 | · | 0.0
O=C(CSc1nnnn1-c1cccnc1)NCc1cccs1 | 1.8 | -5 | 1.6 | 0.8 | -6 | -1 | -6 | 0.9
COc1ccc(CC2CC(=O)N(c3ccc(C)cc3)C2=O)cc1 (stereo not given) | -0.5 | 5 | -1.0 | 4.1 | 1 | 3 | · | 0.4
COc1ccc(CCNC(=O)c2cc(COc3c(F)cccc3F)on2)c(OC)c1 | 2.6 | 3 | -2.1 | 2.8 | 11 | 7 | · | 0.7
O=C(NCCC1=CCCCC1)C1CCC(=O)N(Cc2ccc(Cl)cc2)C1 (stereo not given) | 8.7 | 0 | -3.3 | -0.6 | -4 | 2 | 16 | 0.3
CC(C)c1ccc(NC(=O)CN2C(=O)c3ccccc3S2(=O)=O)cc1 | -0.1 | 7 | 7.2 | 6.2 | 5 | -3 | 1 | 0.3
Cc1c(NC(=S)Nc2ccc(Cl)cc2)c(=O)n(-c2ccccc2)n1C | 0.3 | 16 | 4.6 | -3.9 | -12 | -17 | 2 | 0.2
C=CCSc1nc2ccccc2n1C(=O)/C=C/c1ccc(OC)c(OC)c1 | 2.1 | 34 | 3.0 | -3.0 | 3 | -9 | 68 | 0.7
O=C(c1cccc(-c2ccccc2)c1)N1CC[C@@H](N2CCC(O)CC2)[C@H](O)C1 | · | -1 | 25* | -12 | -3 | -1 | -6 | 1.2
Cc1nc(-c2ccc(S(=O)(=O)N3CCCCCC3)cc2)cs1 | -2.6 | 1 | -1.3 | -1.2 | -5 | 28 | 10 | -0.4
Nc1ncnc2c1ncn2C1CCCO1 (stereo not given) | 4.8 | -7 | · | -1.3 | · | · | -2 | -1.6
c1ccc(OCCCN2CCCC2)cc1 | 2.5 | -3 | 1.1 | -5.4 | -14 | 8 | -5 | -0.5
Cc1ccc(/C([O-])=C(/C(=S)Nc2ccc(SC(F)F)cc2)[n+]2ccccc2)cc1[N+](=O)[O-] | 5.8 | -2 | -1.1 | -2.2 | ? | 16 | -3 | 1.9
CN1CCN(c2ccc(S(=O)(=O)N3CCOCC3)cc2NC(=O)COc2ccc(F)cc2Cl)CC1 | -13 | 2 | 2.1 | -4.0 | -10 | 46 | -1 | 0.2
CCn1nc(NS(=O)(=O)c2ccc([N+](=O)[O-])cc2)c2cc3cc(C)ccc3nc21 | 8.1 | 10 | -0.9 | 1.6 | -6 | -35 | · | -1.2
CC(=O)NCCOC(=O)Nc1sc(=S)n(C)c1C | 3.0 | -10 | 2.7 | -3.2 | -8 | -14 | -5 | 0.2
C/C(=N\NS(=O)(=O)c1ccc([N+](=O)[O-])cc1)c1ccc(NC(=O)c2ccco2)cc1 | · | -3 | -0.6 | 2.4 | -2 | 0 | 1 | -2.3
COc1ccc(N=Cc2oc3ccc4ccccc4c3c2O)cc1 | 1.5 | 3 | -4.4 | -0.9 | 33 | -4 | 2 | 1.3
O=C(N/N=C/c1sc(N2CCCCC2)nc1-c1cccs1)C1CC1 | · | -15 | 12 | -1.4 | 14 | 5 | 0 | 0.5
COc1ccc(-c2c(C)n([O-])c3c([n+]2=O)CCCCC3)cc1 | 3.2 | 0 | -2.2 | 1.3 | -9 | -8 | -1 | 0.3
Other entries
SMILES | UCH37 DUB inh | B2AR ag | RanGTP-Imp inh | LANA-H2A inh | Calb FLC | T cruzi inh | Beta apoptosis | Bfl-1 A1 inh
CCOC(=O)c1ccc(OCCOc2cccc(C)c2)cc1 | 0.7 | -8 | -3.4 | -2.6 | 9 | -2 | 1 | -0.6
CC(=O)Nc1cccc(NC(=O)CSc2nc(=O)n(CCCN3CCOCC3)c3c2CCC3)c1 | 3.4 | -9 | 2.3 | 0.5 | 5 | -19 | 1 | -0.4
Cc1ccc(NC2=C(Cl)C(=O)OC2OC(=O)c2ccccc2C)cc1 (stereo not given) | 0.4 | -7 | -3.1 | · | 6 | -20 | · | ·
CCCCCCCN1C2=NCCCN2c2ccccc21 | 3.4 | -4 | -2.8 | -1.7 | -20 | 50 | 16 | 0.5
O=Cc1cnc(N2CCN(c3ccccc3)CC2)s1 | 7.7 | 3 | 1.9 | -0.5 | -3 | -2 | 3 | -0.6
